VDR inh – inhibitors of human vitamin D receptor | P11473 | VDR-SRC2-3 peptide fluorescence polarization, 2 h | Potency, µM, for inactives: max response, negative = inhibition, usual class: inhibitors | actives 0.93% (n = 400,000) | AID 504847; active means well fitted inhibition curve with a large enough effect; inconclusive means small, poorly fitted or top-dose-only effect, or another doubt; inactive means no such curve, though single readings can be large or run the other way; further: series mostly up to about 120 µM
Target sequence (P11473 whole entry, looked up): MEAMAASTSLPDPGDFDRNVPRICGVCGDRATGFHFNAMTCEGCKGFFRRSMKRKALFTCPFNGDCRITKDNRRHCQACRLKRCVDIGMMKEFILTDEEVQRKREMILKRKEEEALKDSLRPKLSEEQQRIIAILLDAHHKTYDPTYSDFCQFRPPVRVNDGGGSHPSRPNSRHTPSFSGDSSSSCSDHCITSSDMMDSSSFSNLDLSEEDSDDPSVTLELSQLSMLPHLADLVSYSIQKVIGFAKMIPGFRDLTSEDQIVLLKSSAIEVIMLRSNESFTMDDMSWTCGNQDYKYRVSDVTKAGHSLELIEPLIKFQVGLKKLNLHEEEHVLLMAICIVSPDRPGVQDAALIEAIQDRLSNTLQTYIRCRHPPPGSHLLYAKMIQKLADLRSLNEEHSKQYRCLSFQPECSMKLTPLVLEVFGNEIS
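FP read-out; VDR + SRC2-3 coactivator peptide; 23 nl compound by pintool; 2 h RT incubation; reagents held at 4 deg C, protected from light.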
The depositor's hits bear a star; ? = inconclusive; & = joins results of further samples; [ ] = another dose, or the depositor's remark. On the % scale 0 is the no-effect control and ±100 the full control effect; potency means the concentration at half of the fitted maximal effect. Only part of the results is shown; the hit share may differ from the screen's.

Sample of the layout:
no.	molecule	VDR inh
1	CCCCn1c(SCC(=O)c2ccc3c(c2)NC(=O)CO3)nc2cc(S(N)(=O)=O)ccc21	-15.2%
2	COCCn1c(CCC(=O)Nc2ccc(C)c(Cl)c2)nc2cccnc21	12.0%

The listing (from the top)
no.	molecule	VDR inh
1	CCCCn1c(SCC(=O)c2ccc3c(c2)NC(=O)CO3)nc2cc(S(N)(=O)=O)ccc21	-15.2%
2	COCCn1c(CCC(=O)Nc2ccc(C)c(Cl)c2)nc2cccnc21	12.0%
3	CCOc1cc(CNCCCN2CCOCC2)ccc1OCC(=O)NC(C)(C)C	13.1%
4	COc1ccccc1CNC(=O)C1CCC(CNS(=O)(=O)c2ccc(F)cc2)CC1 (stereo not drawn)	6.9%
5	Cc1cccc(C(=O)OC(C)C(=O)N2CCN(Cc3ccccc3)CC2)c1 (stereo not drawn)	-11.1%
6	COc1ccc(-n2nc(C(=O)NCC(=O)NCCCN3CC(C)CC(C)C3)c3ccccc3c2=O)cc1Cl (stereo not drawn)	-1.6%
7	N/C(=N\OC(=O)c1cccs1)c1cccc(Br)c1	-12.9%
8	CCCCCn1c(CCCNC(=O)c2ccc(Cl)cc2)nc2ccccc21	-6.8%
9	CC(=O)c1ccc(N2CCN(C(=O)Cc3cccs3)CC2)cc1	17.8%
10	CCCCCCCCCCCCCCCCCC(=O)NCC(COP(=O)([O-])OCC[N+](C)(C)C)OCC (stereo not drawn)	-8.3%
11	Cc1cc(C)c(C)c(S(=O)(=O)Nc2ccccc2C(=O)NCCCn2ccnc2)c1C	-7.9%
12	COC(=O)c1ccc(NC(=O)c2sc3nc(-c4ccccc4)cn3c2C)cc1	9.5%
13	CCC(=O)NC(=S)NNC(=O)c1ccc(OC)cc1	-14.5%
14	CC(=O)Nc1cccc(C(=O)Nc2cccnc2)c1	14.8%
15	COc1ccccc1NC(=O)N1c2ccccc2Sc2ccccc21	5.4%
16	COc1ccccc1C(=O)NCC(=O)Nc1ccc2c(c1)CCC2	-15.3%
17	Cn1cccc1C(=O)OCC(=O)Nc1cc(C(C)(C)C)nn1-c1ccccc1	-0.1%
18	O=c1oc2ccc(Br)cc2cc1-c1nc2c(s1)CCc1ccccc1-2	-19.0%
19	CN1CCC(=C2c3ccccc3C(O)c3ccccc32)CC1 (stereo not drawn)	10.6%
20	Cc1nnc(SCC(=O)c2ccc(Cl)cc2)n(N)c1=O	20µM*
21	CC1CC(C)CN(CC(O)COCCOc2ccc(Br)cc2)C1 (stereo not drawn)	5.3%
22	CC(=O)NC1=NC(=O)/C(=C/N2CCCCC2)S1	2.5%
23	Cc1nn(Cc2ccc(F)cc2)c(C)c1NC(=O)c1noc2c1CCCCC2	-1.0%
24	Cc1c(OCC(=O)NCC2CCC(C(=O)NCCCO)CC2)ccc2c(-c3ccccc3)cc(=O)oc12 (stereo not drawn)	9.1%
25	C[N+]1(CC(O)COCC2COc3ccccc3O2)CCOCC1 (stereo not drawn)	-1.3%
26	Cc1c([C@H]2[C@@H](CC#N)C2(C)C)c2ccccc2n1C	-11.5%
27	Cc1cccc(NC(=O)Cn2c(=O)n(Cc3nc(-c4ccccc4)no3)c(=O)c3ccccc32)c1	-1.5%
28	O=C(c1ccccc1)N1CCC(c2nc(-c3ccc(S(=O)(=O)NCC4CCCO4)cc3)no2)CC1 (stereo not drawn)	7.2%
29	COc1ccc2cc(C(C)C(=O)OC(C)C)ccc2c1 (stereo not drawn)	-21.0%
30	Clc1ccc(CNc2ccc(N3CCN(Cc4ccccc4)CC3)cc2)cc1	14.3%
31	COCCN(Cc1cc2cc(C)ccc2n2nnnc12)C(=S)Nc1ccc(OC)cc1	-16.0%
32	COc1ccc(C)cc1NC(=O)c1ccc(NS(=O)(=O)c2cccc3cccnc23)cc1	12.8%

2 compounds picked at random from those above:
no.	molecule	VDR inh
31	COCCN(Cc1cc2cc(C)ccc2n2nnnc12)C(=S)Nc1ccc(OC)cc1	-16.0%
27	Cc1cccc(NC(=O)Cn2c(=O)n(Cc3nc(-c4ccccc4)no3)c(=O)c3ccccc32)c1	-1.5%

(listing goes on)
no.	molecule	VDR inh
33	Cc1ccc(N(CC(=O)NCc2ccccc2Cl)S(=O)(=O)c2cccs2)cc1	31.4%[activator]
34	CCN(CC)S(=O)(=O)c1ccc(C(=O)Nn2cnnc2)cc1	-7.4%
35	Cc1cc(C)n(C2CCCCC2OC(=O)c2ccccc2F)n1 (stereo not drawn)	-9.9%
36	COc1ccc(C2/C=C\CN(Cc3ccccc3)C(C)C(=O)N2Cc2ccc(F)cc2)cc1 (stereo not drawn)	-10.1%
37	COc1cc(C2C3C(=O)N(Cc4ccccc4)C(=O)C3ON2c2ccccc2)cc(OC)c1OC (stereo not drawn)	2.1%
38	CC(C)c1ccc(C(=O)NC(=S)Nc2ccc3[nH]c(=O)[nH]c3c2)cc1	-16.5%
39	Cn1c2ccccc2c(=O)c2c(=O)n(C3CCCCC3)c(-c3ccco3)nc21	-19.3%
40	Cn1cccc1Cc1nnc(SCC(=O)Nc2cccc(Cl)c2)n1-c1ccc(F)cc1	-23.7%
41	COc1ccccc1NC(=O)Cn1cc(C(=O)C2CC2)c2ccccc21	-10.8%
42	Cc1cc(C)c(NC(=O)C(C)c2cccc(C(=O)c3ccccc3)c2)c(C)c1 (stereo not drawn)	3.4%
43	CCCCOc1ccc(C2=NC(c3ccncc3)=Nc3ccc(OCC)cc3N2)cc1	17.4%
44	O=C(C1CCCN(S(=O)(=O)c2ccc(Cl)cc2)C1)N1CCCC1 (stereo not drawn)	-5.4%
45	O=C(OCCN1CCCCC1)c1ccccc1F	-4.5%
46	COc1cccc(NC(=O)CN(C)C(=O)c2oc3c(ccc4ccccc43)c2C)c1	7.5%
47	O=C(CSc1ccc(-c2ccco2)nn1)N1CCCC1	-2.2%
48	COc1ccccc1N1CCN(C(c2ccc(Cl)cc2)c2nnnn2C(C)(C)C)CC1 (stereo not drawn)	19.2%
49	O=S(=O)([N-]c1nc2ccccc2nc1-[n+]1ccccc1)c1ccccc1	-17.0%
50	CC(=S)c1c(C)cc2cc(C)ccn12	-19.9%
51	CCC(C)C(N=C1NS(=O)(=O)c2ccccc21)C(=O)N1CCC(C)CC1 (stereo not drawn)	9.0%
52	COc1cccc(C(=O)NCCOc2cc(C)cc(C)c2)c1	-0.5%
53	Oc1ccc(C=NCC2COc3ccccc3O2)cc1 (stereo not drawn)	6.3%
54	COc1ccc2nc(C)cc(NCCN3CCOCC3)c2c1	-7.1%
55	CCc1c(O)nc(SCc2nc3ccccc3c(=O)[nH]2)[nH]c1=O	7.6%
56	CCNC(=S)NCc1ccc(Cl)cc1	-13.3%
57	CCCCn1c(N)c(N(CC)C(=O)c2c(CC)noc2C)c(=O)[nH]c1=O	-3.6%
58	CCN1CCc2c(OCC(=O)N3CCCCC3)cccc2C1=O	-1.1%
59	CNN/C(N=Cc1ccc([N+](=O)[O-])s1)=N\S(=O)(=O)c1cc(C)c(Cl)cc1SCc1ccccc1	-15.6%
60	CN(C)c1ccc(-c2ccc3oc(-c4ccsc4)cc(=O)c3c2)cn1	-10.7%
61	Cc1ccc(S(=O)(=O)N2CCCC(C(=O)O)C2)s1 (stereo not drawn)	-23.2%
62	Cc1ccsc1C(=O)Nc1ccc(OCc2ccccc2)cc1	-20.7%
63	Cc1cccc2cc(CN(Cc3cccs3)C(c3nnnn3C3CCCC3)C(C)C)c(=O)[nH]c12 (stereo not drawn)	-4.8%
64	CC(O)CCc1nc2ccc(C(=O)O)cc2[nH]1 (stereo not drawn)	-0.4%
65	Cc1nnc(-c2cccc(Br)c2)c2cn(-c3ccccc3Cl)nc12	3.0%
66	C=CCn1c(=O)c2c(nc3n2CCCN3CCc2ccccc2)n(C)c1=O	-17.6%
67	COc1ccc(-n2c(=O)c(CCc3ccccc3)nc3cnc(N4CCOCC4)nc32)cc1	3.2%
68	Cc1cccc(/C=N/NC(=O)C[n+]2ccccc2)c1	-0.4%
69	COc1ccccc1-c1nnc(C2CCN(S(=O)(=O)c3ccccc3)CC2)o1	-17.1%
70	COC(=O)c1c(C)oc(C)c1S(=O)(=O)N1CCCCC1	-7.1%
71	O=C(CSc1nnc(CN2CCOCC2)n1-c1ccccc1)Nc1ccc(Cl)cc1	-10.7%
72	COCCNC(=O)CN1N=C(c2ccc(OC)cc2)CCC1=O	65.8%[activator]
73	O=C(O)c1cc2c([nH]c1=O)CCCC2	-5.7%
74	N#Cc1cc2cc3c(cc2nc1SCC(=O)N1CCOCC1)OCO3	9.3%
75	COc1ccccc1C(=O)NC1CCCc2ccccc21 (stereo not drawn)	4.9%
76	CCN(CC)S(=O)(=O)c1cccc(C(=O)N[C@H](C(=O)O)C(C)C)c1	7.1%
77	O=c1ncn(-c2cccc(F)c2)c2ncccc12	3.4%
78	COc1ccc(N2C(=O)CSC23C(=O)N(CC(=O)NC2CCCCC2)c2ccccc23)cc1 (stereo not drawn)	22.7%
79	Oc1cccc(C2c3[nH]c4ccccc4c3CCN2Cc2cnn(-c3ccccc3)c2)c1 (stereo not drawn)	-2.7%
80	COc1cccc(CNC(=O)CCl)c1	-5.6%
81	Cc1ccccc1OCC(=O)N1N=C(C(F)(F)F)CC1(O)C(C)(C)C (stereo not drawn)	-10.5%
82	CC(C)NC(=O)Nc1cccc2c1O[C@@H](CN(C)S(=O)(=O)c1ccc(F)cc1)[C@@H](C)CN([C@H](C)CO)C2=O	-28.0%
83	COc1ccc(C)cc1NC(=O)Nc1cccc(OCc2cc(=O)n3ccc(C)cc3n2)c1	-1.4%
84	Cc1ccc(S(=O)(=O)NNc2ccccc2)cc1	?
85	COC(=O)c1c(NC(=O)c2ccco2)sc(C)c1C	-2.9%
86	Cn1c(=O)c(=O)n(C)c2cc(S(=O)(=O)CCC(=O)N3CCCCC3)ccc21	-19.4%
87	CCOC(=O)CSc1ncc(OC)c(Sc2ccc(Cl)cc2)n1	-10.2%
88	O=C1Nc2ccccc2Oc2cc([N+](=O)[O-])ccc21	11.0%

Following part:
no.	molecule	VDR inh
89	O=c1c2ccccc2sn1-c1ccc(F)cc1	15.8µM*
90	COc1cccc(CNC(=O)C2Cc3ccccc3CN2C(C)=O)c1 (stereo not drawn)	?
91	CCCCCC(=O)NC(NC(=S)NC1CCS(=O)(=O)C1)C(Cl)(Cl)Cl (stereo not drawn)	-2.9%
92	CC(NC(=O)c1ccc(CSc2nc3ccncc3n2Cc2ccc(F)cc2)cc1)c1ccccc1 (stereo not drawn)	-0.3%
93	O=S(=O)(Oc1ccc(Cl)cc1)c1ccccc1	-19.8%
94	O=C(Cn1cc(SCc2ccccc2F)c2ccccc21)N1CCCC1	12.6%
95	Cc1cc(C)cc(-n2c(C)nc3cc(C(=O)O)ccc32)c1	-14.0%&1.6%
96	O=c1c2ccccc2c(C=Nc2cccc(S(=O)(=O)NCc3ccco3)c2)c(O)n1-c1ccc(Cl)cn1	5.5%
97	O=C1CCCC/C=C\C[C@H](CC(=O)N(CCO)Cc2ccccc2)C(=O)NCCO1	0.5%
98	CC1(C2CC2)NC(=O)NC1=O (stereo not drawn)	4.3%
99	CC1(C)C2CCC1(C)C(NC(=O)COC(=O)c1ccc(S(C)(=O)=O)c([N+](=O)[O-])c1)C2 (stereo not drawn)	?
100	Cc1cc(NC(=O)CCCn2nc(C)c([N+](=O)[O-])c2C)no1	-11.3%
101	Fc1ccc(-c2ccnc3nc(N4CCN(c5ccccc5)CC4)nn23)cc1	-16.5%
102	Cc1nc2ccccc2n1CCc1nc2c3ccccc3nc(SCC(=O)Nc3ccc(C(C)C)cc3)n2n1	5.2%
103	CC1Sc2ccc(S(=O)(=O)N3CCC(C(=O)NCc4ccccc4)CC3)cc2NC1=O (stereo not drawn)	-14.6%
104	O=C1c2cccc3c([N+](=O)[O-])c(O)cc(c23)C(=O)N1Nc1ccccc1	?
105	CCC(C)c1ccc(C(C)NC(=S)NC2CCCCC2)cc1 (stereo not drawn)	-19.3%
106	COc1cc(NC(=O)COC(=O)CNC(=O)C2CCCCC2)cc(OC)c1	-9.0%
107	Cc1ccc(S(=O)(=O)N2CCCOC2CNC(=O)C(=O)NCCCn2ccnc2)cc1 (stereo not drawn)	-9.5%
108	Cn1c(=O)c(=O)n(C)c2cc(N3CCOCC3)c(NS(=O)(=O)c3ccc([N+](=O)[O-])cc3)cc21	-7.2%
109	CCCNC(=O)NC(=O)CSc1ccc2c(c1)OCCO2	28.6%
110	CN(CC(=O)O)Cc1oc(CO)cc(=O)c1O	-17.6%
111	COc1cc(/C=C(\C#N)C(=O)c2c(C)[nH]c3ccccc23)cc(OC)c1OC	?
112	O=C(/C=C/c1ccc2c(c1)OCCCO2)c1ccccc1O	?
113	Cc1ccc(-c2nnc(SCC(=O)N/N=C/c3c(C)nn(-c4ccccc4)c3C)n2-c2ccccc2)cc1	-11.2%
114	O=[n+]1c2c(n([O-])c3ccccc31)CCCC2	-1.6%
115	O=C(Oc1coc(CSc2nnc(NC(=O)C3CC3)s2)cc1=O)c1ccccc1	-3.4%
116	Cc1cccc(OCC(=O)N(Cc2ccco2)C2CCS(=O)(=O)C2)c1 (stereo not drawn)	4.0%
117	CCc1cc2c(cc3c(=O)n(CC(=O)NCCCN4CC(C)CC(C)C4)ncn32)s1 (stereo not drawn)	-17.2%
118	C=CC[n+]1c(/C=C2\C=Cc3cc(C)ccc3N2CC)ccc2ccccc21	-13.8%
119	CCn1c(CNC(=O)c2ccc(OC)cc2)nnc1SCC(=O)Nc1ccc(C)cc1	-4.9%
120	COc1cc(-c2noc(CCCC(=O)NCc3ccco3)n2)cc(OC)c1OC	1.2%
121	Cc1ccc(NC(=O)c2cnc3ccccc3n2)cc1C	-4.0%
122	COc1cc2cc(Oc3ccc4ccc(=O)oc4c3)c(=O)oc2cc1O	2.1%
123	O=C(Nc1ccc(F)cc1)c1sc2cc(C(F)(F)F)cnc2c1-c1cccs1	-10.7%
124	Nc1cccc(O)c1	6.3%
125	Cc1ccc2nc(Nc3nc(C)cc(C(F)(F)F)n3)nc(C)c2c1	3.6%

Compound activity as filed in PubChem.
